Source: PubChem
Vaccinia inh = Vaccinia orthopox stage-specific inhibition; Vaccinia-infected cells, mCherry/Venus stage reporter fluorescence; stronger effect = lower value; some inactives read as strong as hits; activity change (mCherry), % (test concentration not listed); 0.01% of 89,000 active;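 active = mCherry past -33% and 40 or more points under the early reporter, replicates agreeing; inconclusive = past -33% without that gap or agreement; tested in A549 cells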;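 note: scaled between vehicle wells and reference inhibitor wells; 23 nL library stock went into each well; one replicate is shown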
Vaccinia inh Venus = second read-out of Vaccinia inh, no call of its own (marks repeat the call); activity change (Venus), %; measured here: Venus reporter, other viral stage;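 negative = less Venus signal; first of two replicates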
Numbers without * were called inactive; ? = inconclusive; / = not tested or not shown; & = joins results of further samples. Not all compounds are listed; the hit share may differ from the screen's.

SMILES	Vaccinia inh	Vaccinia inh Venus
C[C@H]1CN([C@@H](C)CO)C(=O)c2cccc(NC(=O)c3ccncc3)c2O[C@@H]1CN(C)Cc1ccc(Oc2ccccc2)cc1	?	/
COc1ccc(NC(=O)N(C)C[C@H]2Oc3c(NC(=O)c4ccc(-c5nccs5)cc4)cccc3C(=O)N([C@@H](C)CO)C[C@@H]2C)cc1	16	6
O=C(NCC[C@@H]1CC[C@H](NC(=O)c2cccnc2)[C@@H](CO)O1)Nc1ccc(C(F)(F)F)cc1	-4	-4
CCNC(=O)C[C@H]1CC[C@H]2[C@H](COc3ccc(NC(=O)Nc4cccc(F)c4)cc3C(=O)N2C)O1	6	2
CCNC[C@@H]1[C@H](c2ccc(-c3ccc(F)cc3)cc2)[C@H](CO)N1S(C)(=O)=O	?	/
COc1ccc(CN(C)C[C@@H]2Oc3c(NC(=O)Nc4ccc(F)cc4)cccc3C(=O)N([C@H](C)CO)C[C@@H]2C)cc1	-23	-11
CCS(=O)(=O)Nc1ccc2c(c1)C(=O)N(C)[C@H]1CC[C@H](CC(=O)NC)O[C@@H]1CO2	15	3
C[C@@H]1CN([C@H](C)CO)S(=O)(=O)c2ccc(C#CC3(O)CCCC3)cc2O[C@@H]1CN(C)C(=O)Nc1ccc(F)cc1	11	8
O=C(C1CCOCC1)N1CC(=O)N2[C@H](CO)[C@@H](c3ccc(/C=C/c4ccccc4)cc3)[C@@H]2C1	-14	-7
C[C@H](CO)N1C[C@H](C)[C@@H](CN(C)Cc2ccccn2)Oc2ncc(-c3ccc(C#N)cc3)cc2C1=O	-2	-1
C[C@@H]1CN([C@H](C)CO)C(=O)c2cc(NC(=O)Nc3ccc(F)cc3)ccc2O[C@@H](C)CCCCO[C@@H]1CN(C)S(=O)(=O)c1cccs1	13	23
CNC[C@@H]1Oc2cc(C#Cc3ccccc3)ccc2S(=O)(=O)N([C@@H](C)CO)C[C@H]1C	?	/
C[C@H](CO)N1C[C@H](C)[C@H](CN(C)Cc2ccc3c(c2)OCO3)Oc2ccc(NC(=O)CCCCCC(=O)Nc3ccccc3N)cc2CC1=O	5	16
C[C@H](NC(=O)[C@H]1[C@H](CO)[C@H]2Cn3c(cccc3=O)[C@H]2N1Cc1cccnc1)c1ccccc1	6	10
COc1ccc(-c2cnc3c(c2)C(=O)N([C@@H](C)CO)C[C@@H](C)[C@H](CN(C)S(C)(=O)=O)O3)cc1	24	10
C[C@@H]1CN([C@@H](C)CO)S(=O)(=O)c2ccc(C#Cc3cccnc3)cc2O[C@H]1CN(C)CC1CCOCC1	?	/
Cc1ccc(S(=O)(=O)N(C)C[C@@H]2OCCCC[C@H](C)Oc3ccc(NC(=O)NC(C)C)cc3C(=O)N([C@@H](C)CO)C[C@@H]2C)cc1	?	/
COCCNC(=O)C[C@H]1C[C@@H]2c3cc(NC(=O)C4CCOCC4)ccc3O[C@@H]2[C@@H](CO)O1	-6	-2
COCC(=O)N1[C@@H](CO)[C@@H](c2ccccc2)C12CN(C(=O)c1ccc(F)cc1)C2	-2	10
C[C@H](CO)N1C[C@H](C)[C@@H](CN(C)Cc2cccnc2)Oc2cc(Br)ccc2S1(=O)=O	-7&-21	-4&-21
CNC[C@H]1Oc2cc(-c3ccc(OC)cc3)ccc2S(=O)(=O)N([C@H](C)CO)C[C@@H]1C	-5	-4
CN1C(=O)c2cc(NC(=O)c3cnccn3)ccc2OC[C@@H]2O[C@@H](CC(=O)N[C@@H]3CCN(Cc4ccccc4)C3)CC[C@H]21	24	9
COc1ccc(C#Cc2ccc3c(c2)O[C@@H](CN(C)C(=O)CN2CCOCC2)[C@@H](C)CN([C@H](C)CO)S3(=O)=O)cc1	?	/
C[C@H](CO)N1C[C@H](C)[C@@H](CN(C)C(=O)Nc2cccc3ccccc23)Oc2ccc(NC(=O)Cc3cn(C)c4ccccc34)cc2C1=O	6	1
COc1cccc(C(=O)Nc2ccc3c(c2)OC[C@@H](C)N(C)C[C@H](C)[C@H](OC)CN(C)C3=O)c1	1	-4

Complete entries, quoted from the list. Order of values: Vaccinia inh | Vaccinia inh Venus
Results for `Cc1ccc(S(=O)(=O)N(C)C[C@@H]2OCCCC[C@H](C)Oc3ccc(NC(=O)NC(C)C)cc3C(=O)N([C@@H](C)CO)C[C@@H]2C)cc1` = ? | /
Results for `C[C@H](NC(=O)[C@H]1[C@H](CO)[C@H]2Cn3c(cccc3=O)[C@H]2N1Cc1cccnc1)c1ccccc1` = 6 | 10
Results for `COCC(=O)N1[C@@H](CO)[C@@H](c2ccccc2)C12CN(C(=O)c1ccc(F)cc1)C2` = -2 | 10
Results for `COc1ccc(NC(=O)N(C)C[C@H]2Oc3c(NC(=O)c4ccc(-c5nccs5)cc4)cccc3C(=O)N([C@@H](C)CO)C[C@@H]2C)cc1` = 16 | 6
Results for `CNC[C@H]1Oc2cc(-c3ccc(OC)cc3)ccc2S(=O)(=O)N([C@H](C)CO)C[C@@H]1C` = -5 | -4

Carrying on.
SMILES	Vaccinia inh	Vaccinia inh Venus
C/C=C/c1ccc2c(c1)O[C@@H](CN(C)S(C)(=O)=O)[C@H](C)CN([C@@H](C)CO)S2(=O)=O	13	-4
COc1ccc(-c2cnc3c(c2)C(=O)N([C@H](C)CO)C[C@H](C)[C@H](CN(C)Cc2cccnc2)O3)cc1	16	3
COc1ccc(C#Cc2cnc3c(c2)C(=O)N([C@@H](C)CO)C[C@@H](C)[C@H](CN(C)CC2CCOCC2)O3)cc1	?	/
CC(C)NC(=O)N(C)C[C@@H]1Oc2ccc(NS(=O)(=O)c3cn(C)cn3)cc2CC(=O)N([C@@H](C)CO)C[C@H]1C	29	19
CCCNC(=O)C[C@@H]1CC[C@H]2[C@@H](COc3ccc(NC(=O)c4cc(C)on4)cc3C(=O)N2C)O1	3	6
Cc1noc(C)c1NC(=O)N(C)C[C@@H]1Oc2ccc(NC(=O)Cc3cn(C)c4ccccc34)cc2C(=O)N([C@@H](C)CO)C[C@@H]1C	19	10
C[C@@H]1CN([C@H](C)CO)S(=O)(=O)c2ccc(C#CC(C)(C)O)cc2O[C@@H]1CN(C)C(=O)CC1CC1	-3	3
COc1cccc(-c2ccc([C@@H]3[C@H]4CN(C(=O)C5CCCCC5)CC(=O)N4[C@H]3CO)cc2)c1	-25	-15
COc1cccc(S(=O)(=O)Nc2ccc3c(c2)[C@H]2C[C@@H](CC(=O)N(C)C)O[C@H](CO)[C@H]2O3)c1	2	-4
O=C(N[C@@H]1CC[C@@H](CCn2cc(Cc3ccccc3)nn2)O[C@H]1CO)c1ccccn1	6	-1
C[C@@H]1CN([C@@H](C)CO)C(=O)c2cccc(NC(=O)Nc3ccc(F)cc3)c2O[C@@H]1CN(C)Cc1ccccc1	-5	3
CCCC#Cc1cnc2c(c1)C(=O)N([C@@H](C)CO)C[C@H](C)[C@H](CN(C)S(C)(=O)=O)O2	12	6
COc1ccccc1C#Cc1cnc2c(c1)C(=O)N([C@@H](C)CO)C[C@H](C)[C@@H](CN(C)C(=O)CC1CC1)O2	-1	-5
COc1cccc(NC(=O)Nc2ccc3c(c2)C(=O)N(C)[C@H]2CC[C@H](CC(=O)NCCc4ccccc4)O[C@H]2CO3)c1	1	1
C[C@H]1CN([C@@H](C)CO)C(=O)c2cc(C3=CCCC3)cnc2O[C@@H]1CN(C)C(=O)Cc1ccncc1	7	13
C[C@@H]1CN([C@H](C)CO)C(=O)c2cc(NC(=O)Nc3ccc4c(c3)OCO4)ccc2O[C@H]1CN(C)S(=O)(=O)c1cccs1	5	13
Cc1noc(C)c1S(=O)(=O)Nc1ccc2c(c1)CC(=O)N([C@@H](C)CO)C[C@H](C)[C@@H](CN(C)Cc1ccccc1)O2	2	2
COC(=O)C[C@H]1CC[C@@H]2[C@H](COc3ccc(NC(=O)C4CC4)cc3C(=O)N2C)O1	12	15
COc1ccc(S(=O)(=O)N(C)C[C@H]2Oc3ccc(NC(=O)CCN4CCOCC4)cc3CC(=O)N([C@@H](C)CO)C[C@H]2C)cc1	4	9
C[C@@H]1CCCCO[C@H](CN(C)S(=O)(=O)c2cccs2)[C@H](C)CN([C@@H](C)CO)C(=O)c2cc(NC(=O)CCC(F)(F)F)ccc2O1	?	/
CCC(=O)N1Cc2cc(C(=O)NCCOC)nc(-c3cccc(-c4ccc(C#N)cc4)c3)c2[C@H]1CCO	3	4
CCCN1C[C@@H](C)[C@@H](OC)CN(C)C(=O)c2cc(NC(=O)c3ccccc3F)ccc2OC[C@H]1C	12	-1
COc1ccc(S(=O)(=O)N(C)C[C@H]2OCCCC[C@@H](C)Oc3ccc(NS(=O)(=O)c4ccc(F)cc4)cc3C(=O)N([C@H](C)CO)C[C@H]2C)cc1	?	/
CCCN1[C@@H]2c3ccc(C4=CCCC4)c(=O)n3C[C@H]1[C@H](CO)[C@H]2C(=O)N(C)C	1	6
C[C@H]1CN([C@@H](C)CO)S(=O)(=O)c2ccc(/C=C/c3ccccc3)cc2O[C@H]1CN(C)C(=O)Nc1ccc(F)cc1	1	-8

SMILES	Vaccinia inh	Vaccinia inh Venus
COc1ccc([Si](C)(C)[C@@H]2[C@@H](CCO)O[C@]3(C(=O)N(c4ccccc4)c4ccccc43)[C@H]2C)cc1	?	/
CNC[C@@H]1OCCCC[C@H](C)Oc2ccc(NC(=O)Nc3ccccc3)cc2C(=O)N([C@H](C)CO)C[C@H]1C	10	10
C[C@@H]1CN([C@H](C)CO)C(=O)c2cc(-c3cncnc3)cnc2O[C@@H]1CN(C)C(=O)c1ccccc1F	20	2
C[C@H](CO)N1C[C@H](C)[C@@H](CN(C)C(=O)Cc2cccnc2)Oc2cc(C3=CCCCC3)ccc2S1(=O)=O	7	-4
Cc1ccc(S(=O)(=O)Nc2ccc3c(c2)C(=O)N([C@@H](C)CO)C[C@H](C)[C@@H](CN(C)Cc2ccc(Cl)c(Cl)c2)OCCCC[C@@H](C)O3)cc1	?	/
Cc1ccc(S(=O)(=O)N(C)C[C@H]2Oc3c(NC(=O)C4CCCCC4)cccc3C(=O)N([C@H](C)CO)C[C@H]2C)cc1	-6	-10
C[C@H](CO)N1C[C@H](C)[C@@H](CN(C)Cc2ccc(-c3ccccc3)cc2)Oc2ccc(NS(=O)(=O)c3ccccc3)cc2CC1=O	?	/
C[C@H]1CCCCO[C@H](CN(C)S(=O)(=O)c2cn(C)cn2)[C@@H](C)CN([C@@H](C)CO)C(=O)c2cc(NS(C)(=O)=O)ccc2O1	16	8
C[C@H]1CN([C@@H](C)CO)C(=O)Cc2cc(NC(=O)Nc3ccc4c(c3)OCO4)ccc2O[C@H]1CN(C)S(C)(=O)=O	11	8
Cc1ccc(-c2cnc3c(c2)C(=O)N([C@@H](C)CO)C[C@@H](C)[C@@H](CN(C)C(=O)c2ccncc2)O3)cc1	-3	-2
C[C@H](CO)N1C[C@H](C)[C@H](CN(C)S(=O)(=O)c2cccc(F)c2)Oc2ncc(Br)cc2C1=O	1&-8	4&-10
C[C@@H]1CCCCO[C@@H](CN(C)C(=O)NC2CCCCC2)[C@@H](C)CN([C@@H](C)CO)C(=O)c2cc(NC(=O)Nc3ccc4c(c3)OCO4)ccc2O1	18	-2
O=C(C1CCCCC1)N1CC2(C1)[C@H](c1ccccc1)[C@H](CO)N2CCC(F)(F)F	-14	-12
C[C@@H]1CCCCO[C@H](CN(C)S(=O)(=O)c2cn(C)cn2)[C@@H](C)CN([C@@H](C)CO)C(=O)c2cc(NS(C)(=O)=O)ccc2O1	13	3
C[C@H]1CN([C@@H](C)CO)C(=O)c2ccccc2-c2ccccc2CO[C@H]1CN(C)S(=O)(=O)c1ccc(Cl)cc1	?	/
COCCNC(=O)C[C@@H]1CC[C@@H]2[C@H](COc3ccc(NC(=O)c4cnccn4)cc3C(=O)N2C)O1	13	7
C[C@H](CO)N1C[C@H](C)[C@H](CN(C)S(=O)(=O)c2cccc(F)c2)Oc2ncc(C#CC(C)(C)O)cc2C1=O	9	-4
COc1cccc(-c2cnc3c(c2)C(=O)N([C@H](C)CO)C[C@H](C)[C@H](CN(C)C(C)=O)O3)c1	4	-2
C[C@H]1CN([C@@H](C)CO)C(=O)c2cc(NS(=O)(=O)c3cccs3)ccc2O[C@@H]1CN(C)Cc1ccc(-c2ccccc2)cc1	-27	-17
CO[C@@H]1CN(C)C(=O)c2cc(NC(=O)C3CC3)ccc2OC[C@@H](C)N(C(=O)c2cccnc2)C[C@@H]1C	9	10
Cc1noc(C)c1NC(=O)Nc1ccc2c(c1)CC(=O)N([C@@H](C)CO)C[C@H](C)[C@H](CN(C)S(=O)(=O)c1c(C)noc1C)O2	11	3
C[C@H](CO)N1C[C@H](C)[C@H](CN(C)S(=O)(=O)c2ccc(F)cc2)Oc2ncc(-c3cc4ccccc4o3)cc2C1=O	-33	-30
C[C@@H]1CCCCO[C@@H](CN(C)C(=O)Nc2ccc3c(c2)OCO3)[C@H](C)CN([C@H](C)CO)C(=O)c2cc(NS(=O)(=O)c3cn(C)cn3)ccc2O1	4	1
C[C@H](CO)N1C[C@H](C)[C@H](CN(C)S(=O)(=O)c2ccc(F)cc2)Oc2ccc(NS(C)(=O)=O)cc2C1=O	5	1
C[C@@H]1CN([C@@H](C)CO)S(=O)(=O)c2ccc(C#CC(C)(C)O)cc2O[C@H]1CN(C)C(=O)C1CCC1	-5	-11
CO[C@H]1CN(C)C(=O)c2ccc(NC(=O)c3ccno3)cc2OC[C@H](C)N(C(=O)C2CCC2)C[C@H]1C	3	16
COc1cccc(NC(=O)N[C@@H]2C=C[C@@H](CC(=O)N3CCN(C)CC3)O[C@@H]2CO)c1	5	9

Random excerpt: 2 compounds from above, in no set order.
SMILES	Vaccinia inh	Vaccinia inh Venus
Cc1noc(C)c1NC(=O)N(C)C[C@@H]1Oc2ccc(NC(=O)Cc3cn(C)c4ccccc34)cc2C(=O)N([C@@H](C)CO)C[C@@H]1C	19	10
COc1cccc(C(=O)Nc2ccc3c(c2)OC[C@@H](C)N(C)C[C@H](C)[C@H](OC)CN(C)C3=O)c1	1	-4
